Marburg entry inh = inhibitors of Marburg virus binding or cell entry. Potency, µM (doses to about 37.8 µM), inactives show at the highest dose activity change, negative = inhibition, hits mostly inhibitors. Marburg virus pseudotyped entry inhibition, cell reporter; control for the full effect not named in the record; about a third of the inactives were read at about 46 µM. AID 540276. 1.8% of 300,000 active; active = well fitted inhibition curve with a large enough effect; inconclusive = small, poorly fitted or top-dose-only effect, or effect the other way; inactive = flat fitted curve, though single readings scatter; tested in HEK293 cells; about a fifth of its hits are not listed in these tables; further: on the % scale 0 is the no-effect control and ±100 the full control effect; luciferase read-out
Cruzain noTriton = cruzain (T. cruzi) inhibition without detergent. purified cruzain, Z-FR-AMC fluorescence, no detergent. Potency, µM, inactives show max response, negative = inhibition, hits mostly inhibitors. 2.3% of 200,000 active. AID 1476;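 further: plate controls were enzyme without inhibitor for no effect and buffer without enzyme for full effect; nearly all actives have a fitted effect of over 40% in size; top concentration of the series not given in the record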
Target sequence (P25779 123-467 limits assumed): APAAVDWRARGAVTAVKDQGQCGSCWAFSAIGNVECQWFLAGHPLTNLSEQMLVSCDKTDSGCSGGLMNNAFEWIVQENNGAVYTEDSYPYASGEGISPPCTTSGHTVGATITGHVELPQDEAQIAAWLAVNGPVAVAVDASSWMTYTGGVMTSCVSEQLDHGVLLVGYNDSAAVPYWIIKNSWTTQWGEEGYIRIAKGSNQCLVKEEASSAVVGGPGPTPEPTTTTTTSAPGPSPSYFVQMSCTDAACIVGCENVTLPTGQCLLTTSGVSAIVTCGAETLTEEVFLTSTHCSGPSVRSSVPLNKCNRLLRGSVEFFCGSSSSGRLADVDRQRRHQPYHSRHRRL
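Detergent-free condition (0.00005% Triton X-100) in acetate buffer pH 5.5 with DTT. 1.5 nM enzyme and compound were pre-mixed 15 min, then 2 uM Z-FR-AMC substrate added; reaction progress from fluorescence change between first and third reads (60 s).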
NS1 function inh = influenza NS1 inhibition; 0.4% of 270,000 active; S. cerevisiae slowed by influenza A NS1, growth recovery by OD600; Potency, µM (doses to about 46.1 µM), without a hit: at the top dose activity, positive = more growth; active means well fitted rising curve with a large enough effect; inconclusive means small, poorly fitted or top-dose-only effect; inactive means no such curve, though single readings can be large or run the other way; further: nearly all actives have a fitted effect of over 50% in size
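Read-out: OD600 growth recovery of NS1-expressing budding yeast. Cells grown overnight at 30C in -URA glucose medium, washed, resuspended and diluted 1:100 in 2% galactose assay medium, pH 6.0. Same strain lacking NS1 served as positive control.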
LASV entry inh = inhibitors of Lassa virus binding or cell entry; Lassa virus pseudotype entry inhibition, cell reporter; control for the full effect not named in the record; Potency, µM (titrated, usually from 37.9 µM), for inactives: at the highest dose activity change, negative = inhibition, most hits filed as inhibitors; 1.2% of 300,000 active; AID 540256; active means well fitted inhibition curve with a large enough effect; inconclusive means small, poorly fitted or top-dose-only effect, or effect the other way; inactive means flat fitted curve, though single readings scatter; tested in HEK293 cells; further: on the % scale 0 is the no-effect control and ±100 the full control effect; nearly all actives have a fitted effect of over 50% in size; luciferase read-out
Cruzain inh Det = cruzain (T. cruzi) inhibition with detergent. P25779. purified cruzain, Z-FR-AMC fluorescence, 0.01% Triton. Potency, µM, inactives show max response, negative = inhibition, usual class: inhibitors. 0.43% of 200,000 active;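 further: plate controls were neutral wells for no effect and buffer without enzyme for full effect; nearly all actives have a fitted effect of over 40% in size; top concentration of the series not given in the record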
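In this qHTS format, compounds are incubated with 1.5 nM cruzain for 15 min at room temperature before 2 uM Z-FR-AMC is added. Release of AMC is followed at 360/450 nm, and progress is taken as the 60 s fluorescence difference.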
SARS PLpro yeast = inhibitors of SARS-CoV papain-like protease in yeast; Potency, µM (highest dose often 32.9 µM), inactives show top-dose activity, positive = growth rescue; S. cerevisiae expressing SARS-CoV PLpro, growth rescue; control for the full effect not named in the record; 0.19% of 330,000 active; AID 485353; active means well fitted rising curve with a large enough effect; inconclusive means small, poorly fitted or top-dose-only effect; inactive means no such curve, though single readings can be large or run the other way; further: 0% is about no effect; nearly all actives have a fitted effect of over 55% in size; growth read by luminescence after 48 h
2A StopGo = lowers the luciferase signal of an FMDV 2A StopGo reporter. human cells with a luciferase reporter of 2A StopGo recoding; control for the full effect not named in the record. Potency, µM (doses to about 57.9 µM), without a hit: top-dose signal change, negative = less light. 1.2% of 410,000 active; active = well fitted falling curve with a large enough effect; inconclusive = small, poorly fitted or top-dose-only effect; inactive = no such curve, though single readings can be large or run the other way; tested in HEK293T cells; further: on the % scale 0 is the no-effect control and ±100 the full control effect; nearly all actives have a fitted effect of over 45% in size; luciferase light after 4 h
RE007 growth inh = less growth of the S. pombe RE007 Vpr strain; S. pombe RE007 Vpr strain, BacTiter-Glo ATP luminescence, 24 h; control for the full effect not named in the record; Potency, µM (top dose mostly 92.2 µM), without a hit: top-dose activity change, negative = less growth; 0.21% of 360,000 active; AID 651644; active = well fitted falling curve with a large enough effect; inconclusive = small, poorly fitted or top-dose-only effect; inactive = no such curve, though single readings can be large or run the other way;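 further: on the % scale 0 is the no-effect control and ±100 the full control effect; nearly all actives have a fitted effect of over 50% in size; the assay follows cell death caused by Vpr and the record does not say whether a fall means rescue or toxicity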
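Fission yeast RE007 carrying one integrated HIV-1 vpr copy, seeded at OD 0.01 in PMG+AL medium with 23 nL pinned compound. Grown 24 h at 30 degrees; viability read by BacTiter-Glo luminescence after 5 min.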
Numbers without * were called inactive; ? = inconclusive; . = not tested or not shown; & = joins results of further samples; [ ] = dose if it differs, or a comment. Unless noted, the call rests on the fitted dose curve; in most records, active means well fitted curve in the direction sought with a large enough effect; inconclusive means small, poorly fitted or top-dose-only effect, or another doubt; inactive means no such curve, though single readings can be large; an effect the other way counts as inactive or inconclusive. Potency means the concentration at half of the fitted maximal effect.

SMILES	Marburg entry inh	Cruzain noTriton	NS1 function inh	LASV entry inh	Cruzain inh Det	SARS PLpro yeast	2A StopGo	RE007 growth inh
Cc1cc(C)cc(NC(=O)C2(c3ccccc3)CC2(Cl)Cl)c1 (stereo not drawn)	?	11.3%	-49.9%	-28.2%	-2.3%	-32.6%	?	-11.9%
CCCN(CCC)S(=O)(=O)c1ccc(N2CCCC2=O)c([N+](=O)[O-])c1	7.8%	-6.3%	-2.5%	-1.3%	-1.5%	24.7%	5.8%	-9.7%
O=S(=O)(c1ccccc1)c1nnn2c1nc(NCc1cccs1)c1sccc12	.	4.4%	.	-1.8%[46.1 µM]	-1.2%	.	-2.8%	.
COc1ccccc1N1C(=O)NC(=O)/C(=C/c2ccc3c4c(cccc24)CC3)C1=O	7.4%	20.3%	?	-1.2%	-7.7%	0.4%	?	-10.6%
CCCn1c(SCC(=O)/C(C#N)=C(\C)N)n[nH]c1=O	13.5%	1.8%	-5.6%	?	5.6%	2.5%	10.8%	0.8%
O=C(NCCSC1CCCCC1)c1ccccc1	14.9%[46.1 µM]	.	-5.1%	31.9%[46.1 µM]	.	-1.6%	25.8%	0.7%
COc1ccccc1OCC(=O)N1CCNC1=O	-25.9%	1.9%	-5.6%	-0.9%	1.2%	7.7%	0.0%	-2.1%
CC1CN(CN2C(=O)c3ccccc3C2=O)CC(C)O1 (stereo not drawn)	?	-4.2%	10.8%	?	-0.4%	-0.1%	-1.6%	1.3%
O=C(O)c1ccc(NC(CSCc2cccc(F)c2)C(=O)O)c([N+](=O)[O-])c1 (stereo not drawn)	2.3%	-11.0%	-1.2%	7.9%	-3.9%	4.8%	-10.2%	1.2%
CCN(CC)CCNC(=S)Nc1ccc2nc3n(c(=O)c2c1)CCCCC3	?	.	.	3.4%[46.1 µM]	.	-3.8%	-14.4%	-13.8%
O=C(NC(=O)N1CCCCCC1)c1ccccc1	6.7%[46.1 µM]	.	-0.8%	24.5%[46.1 µM]	.	-2.1%	12.5%	2.3%
COc1ccc(N2C(=O)CCC(C(=O)O)C2c2ccc(OC)c(OC)c2)cc1 (stereo not drawn)	-7.2%	4.5%	6.6%	5.9%	0.2%	7.0%	-13.2%	0.4%
CCOc1cc(/C=C(/C#N)c2ccc(F)cc2)ccc1OCc1ccc(C(=O)O)o1	6.2%	?	-48.6%	-13.2%	-23.9%	6.5%	-13.8%	0.7%
CSCCC(NC(=O)c1cncc(Br)c1)C(=O)O (stereo not drawn)	1.9%	10.9%	9.0%	1.8%	13.4%	.	8.7%	-0.5%
CN(CCC#N)C(=O)COC(=O)c1ccccc1C(=O)c1ccc(Cl)c([N+](=O)[O-])c1	?	.	.	?	.	-1.9%	?	2.6%
c1ccc(-c2onc(-c3ccco3)c2-c2ccc3[nH]ccc3c2)cc1	.	.	21.8%	.	.	-19.1%	20.4%	4.9%
CCOC(=O)C1CCCN(C(=O)c2cc(-c3ccccc3)on2)C1 (stereo not drawn)	2.6%	5.4%	-11.0%	-14.2%	1.8%	-4.9%	.	-10.6%
O=C(CS(=O)(=O)c1ccccc1)NCc1ccco1	2.7%[46.1 µM]	.	4.3%	.	.	-0.2%	16.8%	0.6%
Cc1ccccc1NS(=O)(=O)c1cc(OCC(N)=O)c(C)cc1Cl	.	.	-1.9%	.	.	-1.1%	26.2%	-0.9%
O=C(NC1CC(=O)c2sccc21)c1ccc(Cl)cc1Cl (stereo not drawn)	13.1%[46.1 µM]	.	-4.6%	6.5%[46.1 µM]	.	-0.4%	7.5%	6.2%
COc1ccc(Cl)cc1NC(=O)CC(=O)Nc1cc(Cl)ccc1OC	?	.	11.0%	.	.	-2.9%	-5.8%	-5.5%
O=C(COC(=O)C1CCCCC1)Nc1ccc([N+](=O)[O-])cc1	-22.4%[46.1 µM]	.	.	-5.2%	.	0.0%	7.5%	-23.0%
COC(=O)c1ccc([C@H]2C=C(C(=O)O)O[C@@H](OCc3ccc(CO)cc3)C2)cc1	.	.	-9.0%	.	.	-1.0%	7.1%	-0.1%
COc1ccc2nc(SCC(=O)NC3(C#N)CCCCC3)[nH]c2c1	-13.1%	.	.	14.4%	.	-1.1%	?	-1.7%
O=C(NCCc1ccccc1)C1CCCN(C(=O)NC2CCCCC2)C1 (stereo not drawn)	2.2%	-3.4%	3.0%	3.6%	1.5%	1.2%	-12.8%	15.4%
Continued.
SMILES	Marburg entry inh	Cruzain noTriton	NS1 function inh	LASV entry inh	Cruzain inh Det	SARS PLpro yeast	2A StopGo	RE007 growth inh
COc1cc(C(=O)Nc2ccc3c(c2)N(C(=O)CCN(C)C)c2ccccc2CC3)cc(OC)c1OC	?	.	-2.0%	?	.	0.1%	-1.4%	9.2%
CCCCNc1ccc(-c2nc(-c3ccccc3)no2)cc1[N+](=O)[O-]	-10.5%[46.1 µM]	5.7%	.	-7.0%[46.1 µM]	-5.9%	.	0.0%	.
O=C(Cn1c(=O)oc2ccccc21)N1CCCCC1	3.2%	13.0%	6.9%	?	10.6%	4.6%	8.5%	-10.7%
COc1ccc(N2CC(C(=O)N[C@H](C(=O)NC(C)c3ccccc3)C(C)C)CC2=O)cc1 (stereo partly drawn)	.	.	-6.8%	.	.	-2.4%	-1.3%	8.4%
COCCCn1c2nc3ccccc3nc2c2c(=O)n(Cc3ccccc3Cl)cnc21	.	6.9%	-19.2%	.	4.8%	1.2%	.	.
CCO[C@@H]1OC(C(=O)NCc2ccccc2)=C[C@H](c2ccccc2)[C@H]1CCCO	.	.	-3.0%	.	.	1.1%	-19.3%	-8.2%
Cc1cccc(NC(=O)Cn2c(=O)oc3ccccc32)c1	-0.6%	3.1%	-3.0%	1.4%	5.7%	0.8%	-0.8%	5.8%
O=C(COC(=O)c1cnccn1)c1ccccc1	-5.2%	-2.9%	4.5%	5.0%	1.0%	-1.5%	-14.9%	-8.7%
COc1ccc(S(=O)(=O)N[C@@H](CC(C)C)C(=O)O)cc1	12.6%	-4.9%	-5.6%	4.0%	-2.0%	3.2%	.	8.6%
CC(=O)Nc1ccc(S(=O)(=O)NNC(=O)COc2ccc(C(C)(C)C)cc2)cc1	-14.0%[46.1 µM]	0.7%	2.3%	-13.2%	1.6%	3.6%	-24.3%	8.4%
O=C(Nc1nc(-c2ccc3c(c2)OCO3)cs1)C1COc2ccccc2O1 (stereo not drawn)	.	?	?	.	-8.3%	-1.6%	-23.9%	2.4%
CC(CC(=O)O)C(=O)c1ccc(Cl)c([N+](=O)[O-])c1 (stereo not drawn)	-0.6%[46.1 µM]	.	.	-0.5%	.	0.2%	-13.3%	-9.2%
Cc1cc(C)c(-c2csc(NC(=O)CCCc3nc4ccccc4c(=O)[nH]3)n2)c(C)c1	?	.	.	?	.	-2.0%	?	-4.5%
O=C(Cn1c(=O)oc2ccccc21)N1CCN(c2ccccc2)CC1	0.1%	-3.2%	0.8%	13.3%	3.9%	-0.9%	9.4%	-0.1%
Cc1onc(-c2ccccc2Cl)c1C(=O)N1CC(C)OC(C)C1 (stereo not drawn)	3.8%	1.4%	-0.3%	4.6%	-2.8%	3.7%	-0.7%	14.8%
O=C(COC(=O)c1ccccc1)NCc1ccco1	2.1%	3.8%	?	1.1%	1.0%	-0.8%	6.0%	6.8%
COc1ccccc1C(=O)NCC(C)(C)CN=C1NS(=O)(=O)c2ccccc21	0.8%[46.1 µM]	.	0.5%	-22.6%	.	6.2%	?	-4.0%
COc1ccc(N2C(=O)C(=O)N(c3ccc(OC)cc3)P2(=O)N(CCCl)CCCl)cc1	-2.4%[46.1 µM]	.	.	-1.3%[46.1 µM]	.	.	-13.8%	40.1%
CCCn1c(SCc2ccc(C(=O)OC)o2)nc2ccccc2c1=O	?	.	-3.5%	?	.	-3.2%	-25.9%	45.8%
CCN(Cc1ccccc1)Cc1c(O)ccc2c(=O)c(-c3ccccc3)c(C(F)(F)F)oc12	17.3%[46.1 µM]	18.9%	.	?	-2.7%	.	-23.8%	.
Cc1ccc(NC(=O)CSc2nc(-c3ccc(C(C)(C)C)cc3)nc3cc(=O)[nH]n23)cc1C	.	3.98µM*	.	0.1%[46.1 µM]	-0.7%	.	-15.0%	.
COc1cc(C(=O)NCc2ccc3c(c2)cc(C)n3C)cc(OC)c1OC	?	.	.	?	.	-6.6%	3.2%	5.1%
COc1ccc(CN2C(=O)C(O)(CC(=O)c3c(C)n[nH]c3C)c3ccccc32)cc1OC (stereo not drawn)	-0.2%	4.2%	3.6%	-20.3%	-2.3%	5.9%	-23.2%	-9.3%
COc1ccc(OC)c(Nc2ncnc3sccc23)c1	.	.	4.0%	.	.	-3.7%	-0.8%	-5.4%
Cc1cc(C(=O)Nc2c(C)cccc2C)n(-c2ccccc2)n1	12.3%[46.1 µM]	8.0%&6.1%	-13.4%	2.0%[46.1 µM]	0.7%&1.0%	2.7%	-14.4%&-24.5%	-0.4%
Following part.
SMILES	Marburg entry inh	Cruzain noTriton	NS1 function inh	LASV entry inh	Cruzain inh Det	SARS PLpro yeast	2A StopGo	RE007 growth inh
CCN(CC)C(=O)c1sc2[nH]c(=S)n(-c3ccccc3)c(=O)c2c1C	-1.2%	-12.6%	9.2%	-0.8%	-4.8%	5.5%	.	-1.8%
Cc1cc(C)cc(N(C(=O)c2ccccn2)C(C(=O)NC2CCCCC2)c2ccncc2)c1 (stereo not drawn)	?	.	14.2%	?	.	7.3%	42.5%[activator]	-16.0%
COC(=O)COC(=O)c1ccc(Oc2nc(OC)nc(N(C)C)n2)cc1	-7.8%	8.2%	-5.5%	2.6%	0.8%	6.6%	-19.4%	38.9%[3.69 µM]
CCC(CC)C(=O)Nc1c(C(=O)N2CCN(c3ccccc3F)CC2)oc2ccccc12	?	?	.	?	-0.3%	.	17.9%	.
COc1ccc([N+](=O)[O-])c(O)c1C(C)=O	-8.6%[46.1 µM]	.	.	-9.2%[46.1 µM]	.	.	-9.3%	-0.1%
CCOc1ccc2oc(=O)cc(CN3CCN(C(=O)c4cccc(F)c4)CC3)c2c1	-3.6%[46.1 µM]	-0.7%	.	-1.4%[46.1 µM]	-3.1%	.	-21.2%	.
